Shh pathway inh – Hedgehog pathway signaling inhibitors, primary screen, luminescence, Shh-LIGHT2 cells, Gli-luciferase. Shh-LIGHT2 Gli-luciferase reporter, 30 h. inhibition, % (no concentration beside the values). 22,000 tested, 2.1% active. AID 2313, 2010;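 active = replicate mean of 65% or more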;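 note: pathway switched on by Shh-conditioned medium diluted 1 in 25 in low serum; 100 nL library stock added to about 40 µL; 0% = median of neutral wells and 100% = positive control level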
YB-1 expression – inhibitors of YB-1 gene expression, primary screen, cell-based, fluorescence. U2OS, qRT-PCR YB-1 vs CDIP delta delta Cp, 16 h; active compounds read high; zero = DMSO, each unit about twofold. delta delta Cp (YB-1 minus CDIP) (test concentration not listed). 30,000 tested, 0.37% active. AID 434959, 2010;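 active = delta delta Cp rounded down to an integer at or above 3, about 3 SD of DMSO wells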;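 note: higher means less YB-1 transcript or more CDIP transcript relative to DMSO; stock transfer was 100 nL into about 100 µL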
MITF inh – inhibitors of MITF, primary screen, MITF inhibitor project, cell-based, luminescence; TRPM1 promoter luciferase, 24 h; inhibition, % (no concentration beside the values); 37,000 tested, 0.28% active;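 active = most replicates at 85% or more, or half of them and the mean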;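 note: human melanocyte line stably carrying TRPM1 promoter luciferase reporter; 0% = vehicle wells and 100% = a positive control; the first replicate is given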
PD-1 reversal – activators reversing PD-1 mediated T-cell inhibition, primary screen, luminescence, primary human CD4 T cells, PD-L1 beads | CellTiter-Glo 96 h | activation, % (no concentration beside the values) | 29,000 tested, under 10 active | AID 2316, 2010;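 active = replicate mean of 50% or more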;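 note: 0% = median vehicle wells and 100% = positive control; 100 nL library stock added to about 50 µL; numbers are from one replicate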
The depositor's hits bear a star; . = no result given.

Every second line gives: Shh pathway inh	YB-1 expression	MITF inh	PD-1 reversal
COc1ccc(S(=O)(=O)N(C)C[C@H]2Oc3ccc(NS(=O)(=O)c4cn(C)cn4)cc3C(=O)N([C@@H](C)CO)C[C@H]2C)cc1
    -6	-0.64	-3	1.6
C[C@H]1CN([C@@H](C)CO)C(=O)Cc2cc(NS(C)(=O)=O)ccc2O[C@@H]1CN(C)Cc1ccc2c(c1)OCO2
    -1	-0.39	0	.
CN(C1CCCCC1)S(=O)(=O)c1cc(Cl)ccc1Cl
    2	0.23	-17	0.3
C[C@H](CO)N1C[C@H](C)[C@H](CN(C)Cc2ccc(Cl)c(Cl)c2)Oc2c(NC(=O)C3CCCCC3)cccc2C1=O
    10	-0.35	25	-2.1
CSc1ccccc1NC(=O)C(C)n1nc(C)c([N+](=O)[O-])c1C (stereo unspecified)
    .	.	3	0.1
CS(=O)(=O)N(CC(=O)Nc1ccc(F)c(Cl)c1)Cc1ccccc1
    .	.	-2	-2.3
Cc1cc(C(=O)Nc2cccc3c2O[C@H](CN(C)C)[C@H](C)CN([C@@H](C)CO)C3=O)n(C)n1
    -8	0.18	-3	1.3
C[C@@H]1CN([C@H](C)CO)C(=O)c2cccc(NS(=O)(=O)c3ccc(Cl)cc3)c2O[C@@H]1CN(C)Cc1ccncc1
    0	0.086	-14	-0.4
C[C@H]1CN([C@@H](C)CO)C(=O)Cc2cc(NC(=O)CCN3CCOCC3)ccc2O[C@@H]1CN(C)C(=O)Nc1ccccc1
    15	0.19	-4	1.2
Cc1noc(C)c1NC(=O)N(C)C[C@@H]1Oc2ccc(NC(=O)c3ccncc3)cc2CC(=O)N([C@H](C)CO)C[C@@H]1C
    17	0.14	-11	-0.7
COc1ccc(Cl)cc1N(CC(=O)Nc1ccc(I)cc1)S(C)(=O)=O
    .	.	11	1.1
Cc1ccc(S(=O)(=O)Nc2ccc3c(c2)C(=O)N([C@@H](C)CO)C[C@H](C)[C@@H](CN(C)C(=O)NC2CCCCC2)O3)cc1
    .	-0.21	6	-0.4
Cc1ccc(S(=O)(=O)Nc2ccc3c(c2)CC(=O)N([C@@H](C)CO)C[C@@H](C)[C@@H](CN(C)Cc2ccc4c(c2)OCO4)O3)cc1
    -15	-0.28	-26	1.6
O=C(O)CC(C(=O)Nc1cc(C(F)(F)F)cc(C(F)(F)F)c1)C1=CCCCC1 (stereo unspecified)
    -37	-0.33	0	0.1
O=C(OCC1=CC(O)C2C=CO[C@@H](O[C@@H]3O[C@H](CO)[C@@H](O)[C@H](O)[C@H]3O)C12)c1ccccc1 (stereo partly specified)
    -27	0.54	.	.
N#Cc1c(NC(=O)Cn2c(=O)oc3ccccc32)oc(-c2ccccc2)c1-c1ccccc1
    .	.	54	2.0
C[C@@H]1CN([C@@H](C)CO)C(=O)c2cc(NC(=O)CCC(F)(F)F)ccc2O[C@H]1CN(C)C(=O)Nc1cccc2ccccc12
    .	0.0043	-5	-0.2
O=C(CC1(O)C(=O)N(Cc2ccc(Cl)cc2)c2ccccc21)c1cc2ccccc2oc1=O (stereo unspecified)
    .	.	11	-2.7
COc1ccc(S(=O)(=O)Nc2cccc3c2O[C@@H](CN(C)C(=O)Nc2ccccc2)[C@H](C)CN([C@H](C)CO)C3=O)cc1
    16	0.011	6	0.8
COc1ccc(S(=O)(=O)Nc2cccc3c2O[C@@H](CN(C)CC2CC2)[C@@H](C)CN([C@H](C)CO)C3=O)cc1
    -24	0.13	-1	2.5
Cc1cccc(NC(=O)c2ccccc2NC(=O)COc2ccc([N+](=O)[O-])cc2)c1C
    .	.	-9	1.3
CCOC(=O)Cn1nc(C(F)(F)F)cc1C
    -11	-0.026	-12	0.1
COc1ccc(NC(=O)Nc2cccc3c2O[C@H](CN(C)S(=O)(=O)c2ccc(F)cc2)[C@@H](C)CN([C@@H](C)CO)C3=O)cc1
    -51	-0.17	-3	1.1
C[C@H](CO)N1C[C@H](C)[C@H](CN(C)Cc2ccc(C(=O)Nc3ccccc3N)cc2)Oc2ccc(NC(=O)CCN3CCOCC3)cc2C1=O
    .	0.63	-18	-1.0
O=C1OC(COc2ccc(Br)cc2)CN1c1ccccc1 (stereo unspecified)
    -7	-0.29	8	0.1
CNC[C@@H]1Oc2c(NC(=O)Nc3ccc(C(F)(F)F)cc3)cccc2C(=O)N([C@@H](C)CO)C[C@H]1C
    1	0.32	0	0.3
COc1ccc(CCNC(=S)Nc2c(C)n(C)n(-c3ccccc3)c2=O)cc1OC
    .	.	-1	0.9
Cc1cc(C(=O)Nc2cccc3c2O[C@H](CN(C)CC2CCCCC2)[C@@H](C)CN([C@@H](C)CO)C3=O)n(C)n1
    41	-0.48	-14	-2.8
C[C@@H]1CN([C@H](C)CO)C(=O)c2cc(NS(=O)(=O)c3cn(C)cn3)ccc2O[C@@H]1CN(C)C(=O)Nc1ccc(F)cc1
    -11	-0.029	-21	0.8
C[C@@H]1CN([C@@H](C)CO)C(=O)Cc2cc(NS(=O)(=O)c3ccc(Cl)cc3)ccc2O[C@@H]1CN(C)S(=O)(=O)c1ccc(F)cc1
    -25	-0.0088	-8	0.5

Every second line gives: Shh pathway inh	YB-1 expression	MITF inh	PD-1 reversal
C[C@@H]1CN([C@H](C)CO)C(=O)c2cc(NS(=O)(=O)c3cccs3)ccc2O[C@@H]1CN(C)Cc1ccc(C(=O)Nc2ccccc2N)cc1
    .	-0.096	25	-2.5
COc1ccc(S(=O)(=O)N2CCCC(C(=O)Nc3ccc4c(c3)OCCO4)C2)cc1Cl (stereo unspecified)
    .	.	18	-1.1
C[C@@H]1CN([C@H](C)CO)C(=O)c2cccc(NC(=O)c3cnccn3)c2O[C@H]1CN(C)Cc1ccc(-c2ccccc2)cc1
    20	0.083	0	-2.7
COc1ccc(NC(=O)N(C)C[C@@H]2Oc3ccc(NS(=O)(=O)c4cn(C)cn4)cc3CC(=O)N([C@H](C)CO)C[C@H]2C)cc1
    72*	0.044	-14	-0.2
C[C@@H]1CN([C@H](C)CO)C(=O)c2cc(NC(=O)CCC(F)(F)F)ccc2O[C@H]1CN(C)CC1CCCCC1
    .	-0.37	1	-1.0
C[C@@H]1CN([C@@H](C)CO)C(=O)c2cc(NC(=O)Nc3ccc(F)cc3)ccc2O[C@@H]1CN(C)Cc1ccc(C(=O)Nc2ccccc2N)cc1
    .	-0.53	-14	-0.7
CCC(=O)OCC(=O)[C@@]1(OC(=O)CC)[C@@H](C)C[C@H]2[C@@H]3CCC4=CC(=O)C=C[C@]4(C)[C@@]3(Cl)[C@@H](O)C[C@@]21C
    61	-0.17	0	-7.2
C[C@@H]1CN([C@H](C)CO)C(=O)c2cc(NS(=O)(=O)c3ccccc3)ccc2O[C@@H]1CN(C)C(=O)Nc1ccc(F)cc1
    .	-0.13	-8	-2.2
C[C@@H]1CN([C@H](C)CO)C(=O)Cc2cc(NC(=O)Cc3cn(C)c4ccccc34)ccc2O[C@H]1CN(C)CC1CCCCC1
    -89	-0.072	8	1.3
CCOC(=O)c1c(NC(=O)COc2ccccc2C)sc2c1CCC2
    .	.	5	2.1
Cn1cnc2cc3c(Nc4cccc(Br)c4)ncnc3cc21
    -16	-0.94	-2	2.5
COc1ccc(S(=O)(=O)Nc2ccc3c(c2)CC(=O)N([C@H](C)CO)C[C@@H](C)[C@@H](CN(C)C(=O)Nc2ccc(C(F)(F)F)cc2)O3)cc1
    1	-0.031	-6	-1.8
COc1ccc(NC(=O)N(C)C[C@@H]2Oc3ccc(NS(C)(=O)=O)cc3C(=O)N([C@H](C)CO)C[C@H]2C)cc1
    .	-0.018	-2	-0.7
CC(C)(C)NC(=O)CSc1nnc(-c2ccccn2)n1-c1ccccc1
    .	.	-2	1.0
C[C@@H]1CN([C@H](C)CO)C(=O)c2cccc(NC(=O)Nc3ccc4c(c3)OCO4)c2O[C@H]1CN(C)CC1CCCCC1
    28	-0.32	0	-1.2
CC(C)NC(=O)N(C)C[C@H]1Oc2c(NC(=O)NC3CCCCC3)cccc2C(=O)N([C@@H](C)CO)C[C@@H]1C
    -17	-0.15	7	1.0
COc1ccc(NC(=O)Nc2cccc3c2O[C@H](CN(C)S(=O)(=O)c2ccccc2)[C@H](C)CN([C@H](C)CO)C3=O)cc1
    75*	-0.034	-57	.
COc1ccc(NC(=O)N(C)C[C@H]2Oc3ccc(NC(=O)Nc4cccc5ccccc45)cc3C(=O)N([C@@H](C)CO)C[C@@H]2C)cc1
    -32	0.16	24	-3.3
C[C@H]1CN([C@@H](C)CO)C(=O)c2cccc(NC(=O)NC3CCCCC3)c2O[C@@H]1CN(C)Cc1ccncc1
    -9	0.16	1	.
CC(=O)Nc1ccc(C(=O)CSc2nc3ccccc3n2C)cc1
    .	.	-18	-1.6
CCOc1ccc2nc(S/C=C/C(=O)c3ccc(Cl)cc3)sc2c1
    -24	-0.37	-20	0.6
COCCNC(=O)c1ccccc1-c1nc(-c2ccc(OC)c(OC)c2)no1
    .	.	4	-1.4
C[C@H](CO)N1C[C@H](C)[C@H](CN(C)CC2CCCCC2)Oc2ccc(NS(=O)(=O)c3ccc(F)cc3)cc2CC1=O
    -10	-1.2	-7	.
C[C@@H]1CN([C@@H](C)CO)C(=O)c2cc(NS(C)(=O)=O)ccc2O[C@H]1CN(C)Cc1ccc(C(=O)O)cc1
    22	-1.1	3	0.7
COc1ccccc1NC(=O)c1ccc(OC(C)C(=O)O)cc1 (stereo unspecified)
    .	.	-20	1.3
CC(C)CNP(=O)(OC1CC(C)CCC1C(C)C)c1ccccc1 (stereo unspecified)
    -5	-0.14	-11	0.3
Cc1cc(C(=O)Nc2cccc3c2O[C@@H](CN(C)C(=O)Nc2ccc4c(c2)OCO4)[C@H](C)CN([C@H](C)CO)C3=O)n(C)n1
    1	0.074	1	0.8
C[C@H]1CN([C@@H](C)CO)C(=O)Cc2cc(NC(=O)Nc3ccc4c(c3)OCO4)ccc2O[C@H]1CN(C)C
    -36	0.9	-13	0.9
C[C@H](CO)N1C[C@H](C)[C@H](CN(C)C(=O)Nc2ccc(F)cc2)Oc2c(NC(=O)c3nc4ccccc4s3)cccc2C1=O
    -20	1.4	-19	-1.6
O=C(CSc1nccc(=O)[nH]1)Nc1cccc(F)c1
    .	.	-22	0.2

Looked up by compound from the list above (2):
Every second line gives: Shh pathway inh	YB-1 expression	MITF inh	PD-1 reversal
C[C@@H]1CN([C@H](C)CO)C(=O)c2cc(NC(=O)CCC(F)(F)F)ccc2O[C@H]1CN(C)CC1CCCCC1
    .	-0.37	1	-1.0
Cc1ccc(S(=O)(=O)Nc2ccc3c(c2)C(=O)N([C@@H](C)CO)C[C@H](C)[C@@H](CN(C)C(=O)NC2CCCCC2)O3)cc1
    .	-0.21	6	-0.4

Additional results:
Every second line gives: Shh pathway inh	YB-1 expression	MITF inh	PD-1 reversal
CC(=O)Nc1ccc(S(=O)(=O)n2cnc3ccccc32)cc1
    -49	0.11	6	-5.0
COC(=O)c1c(-c2ccc(F)cc2)csc1NC(=O)CSc1ncnc2sc3c(c12)CCC3
    .	.	39	-0.9
Cc1ccccc1C(=O)Nc1ccc(OCC(=O)O)cc1
    .	.	4	0.4
Cc1cc(C)nc(SCC(=O)N2c3ccccc3Sc3ccccc32)n1
    .	.	23	-1.8
C[C@@H]1CN([C@@H](C)CO)C(=O)c2cc(NS(=O)(=O)c3ccc(F)cc3)ccc2O[C@H]1CN(C)C
    1	0.086	8	2.1
C[C@@H]1CCCCO[C@@H](CN(C)C(=O)c2ccccc2)[C@@H](C)CN([C@H](C)CO)C(=O)c2cc(NC(=O)CCCN(C)C)ccc2O1
    .	-0.39	6	.
Cn1c(-c2nonc2NC(=O)c2ccccc2Br)nc2ccccc21
    .	.	15	-0.4
O=C(CSc1nnc(-c2ccncc2)n1-c1ccc(Cl)cc1)Nc1ccc2cn[nH]c2c1
    .	.	8	-1.4
O=C(COc1ccccc1[N+](=O)[O-])Nc1ccc(Br)cc1C(=O)O
    .	.	14	1.8
C[C@H](CO)N1C[C@H](C)[C@H](CN(C)Cc2ccccc2)Oc2ccc(NC(=O)CCN3CCOCC3)cc2C1=O
    .	-0.14	8	.
C[C@@H]1CN([C@H](C)CO)C(=O)Cc2cc(NC(=O)Nc3ccccc3)ccc2O[C@H]1CN(C)S(=O)(=O)c1ccccc1
    .	-0.2	-8	-1.1
O=[N+]([O-])c1cccc(NC(=S)Nc2nn(Cc3ccc(Cl)cc3Cl)cc2Cl)c1
    .	.	40	-2.8
CNC[C@@H]1Oc2ccc(NS(=O)(=O)c3cccs3)cc2CC(=O)N([C@H](C)CO)C[C@@H]1C
    -12	-0.036	-5	4.1
COc1ccc(C2Oc3c(OC)cc(CCCO)cc3C2COC2OC(CO)C(O)C(O)C2O)cc1OC (stereo unspecified)
    -28	0.082	13	3.6
O=C(CSc1nnc(-c2cccs2)n1-c1ccccc1)Nc1ccccc1Cl
    .	.	9	-0.1

Single records, as listed above. Order of values: Shh pathway inh, YB-1 expression, MITF inh, PD-1 reversal
O=C(CSc1nccc(=O)[nH]1)Nc1cccc(F)c1 is listed as ., ., -22, 0.2
C[C@@H]1CN([C@@H](C)CO)C(=O)c2cc(NS(C)(=O)=O)ccc2O[C@H]1CN(C)Cc1ccc(C(=O)O)cc1 is listed as 22, -1.1, 3, 0.7

Not all compounds are listed (hit frequency here may not be typical).
